Insulin prom inh = TRM-6 insulin promoter activity inhibition; inhibition, % at 2 µM; actives 0.9% (n = 130,000); AID 1273; TRM-6 cells (human fetal islet line), insulin promoter-eGFP reporter, imaging; reporter expression induced with tamoxifen;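 active = inhibition above the mean plus 3 SD, with well images judged a real hit on visual review, cut at about 60% in these data, passing the limit was not always enough; inconclusive = inhibition over the cutoff but images rejected on review; inactive = inhibition not above the cutoff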
PKD1 inh = PKD1 (human) kinase inhibition; Q15139; PKD1 kinase fluorescence polarization assay; inhibition, %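 (about 10 µM by stock and volumes)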; actives 0.056% (n = 200,000); AID 797;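 active = inhibition of 50% or more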;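 also: controls were vehicle for no effect and a reference inhibitor for full effect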
RGS16-Gao = RGS16-Galphao interaction regulator (human) | O15492+P09471 | bead-based flow cytometry RGS16-Galphao binding, fluorescence; actives lie on both sides | binding response (% of control), % at 10 µM | actives 0.38% (n = 220,000) | AID 1441;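 active = below 25% or above 175%, edge rows of some plates excepted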;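 also: Galphao activated by GDP with aluminum fluoride before binding; 100% = wells without compound and 0% = beads without RGS; some results beyond the cut were filed as inactive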
Target sequence (O15492 whole entry, looked up): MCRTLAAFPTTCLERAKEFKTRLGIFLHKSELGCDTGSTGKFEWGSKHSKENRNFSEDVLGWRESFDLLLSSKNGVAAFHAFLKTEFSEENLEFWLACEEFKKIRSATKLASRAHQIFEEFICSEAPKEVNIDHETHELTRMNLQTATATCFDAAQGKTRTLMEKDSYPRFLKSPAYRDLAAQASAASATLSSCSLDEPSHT
Target sequence (P09471 whole entry, looked up): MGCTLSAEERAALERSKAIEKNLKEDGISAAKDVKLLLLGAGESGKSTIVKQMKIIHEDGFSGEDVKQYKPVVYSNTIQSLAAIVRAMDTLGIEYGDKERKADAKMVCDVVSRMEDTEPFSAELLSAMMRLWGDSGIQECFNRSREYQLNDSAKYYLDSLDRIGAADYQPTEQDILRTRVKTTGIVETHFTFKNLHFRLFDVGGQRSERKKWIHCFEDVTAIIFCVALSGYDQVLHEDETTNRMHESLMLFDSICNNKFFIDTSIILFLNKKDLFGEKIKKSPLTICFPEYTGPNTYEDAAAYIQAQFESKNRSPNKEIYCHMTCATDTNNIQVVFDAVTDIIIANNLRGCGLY
GALR2 agonist = GALR2 (human) receptor agonism. AID 803. activation, %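 (tested at 5 µM)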. actives 0.48% (n = 140,000). GALR2-expressing cells, agonist activation read-out;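 active = above mean plus 3 SD of all compounds, about 5% in these data, not always enough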;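 also: 0% = vehicle buffer wells and 100% = reference agonist at full effect; tested in CHO reporter cells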
Target sequence (O43603 whole entry, looked up): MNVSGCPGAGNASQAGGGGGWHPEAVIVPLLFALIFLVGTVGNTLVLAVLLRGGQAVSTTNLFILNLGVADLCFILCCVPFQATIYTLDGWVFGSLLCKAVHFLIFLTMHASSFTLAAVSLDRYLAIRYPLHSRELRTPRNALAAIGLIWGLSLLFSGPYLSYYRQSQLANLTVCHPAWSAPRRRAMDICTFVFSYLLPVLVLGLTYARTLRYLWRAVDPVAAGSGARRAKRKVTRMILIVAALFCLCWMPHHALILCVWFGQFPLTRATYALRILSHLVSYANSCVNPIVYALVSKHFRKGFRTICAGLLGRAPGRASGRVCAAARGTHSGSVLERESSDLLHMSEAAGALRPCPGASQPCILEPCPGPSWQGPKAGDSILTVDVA
HSV augment = HSV replication enhancement; HSV replication augmentation in cells, fold increase; maximum fold increase; actives 0.005% (n = 220,000); AID 1956;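 active = peak rise of 1.5-fold or more in the series; inconclusive = self-fluorescent or not available for retest; tested in PC3 cells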;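 also: first round at 10 µM; read as green reporter fluorescence; hits show the peak of a series up to 25 µM; 1 = signal of infected wells without compound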
Insulin prom inh cell count = second read-out of Insulin prom inh, no call of its own (marks repeat the call); normalized cell count, %; measured here: cell count, toxicity; reference of the scale not given here;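 cells exposed to compound for 48 h; stained nuclei by imaging scaled within each plate; lower means fewer cells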
HSV augment primary fold = second read-out of HSV augment, no call of its own (marks repeat the call); fold increase; compound at 10 µM; measured here: primary screen fold increase 10 uM; tested in PC3 cells;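 GFP signal in the first replicate; 1 = infected wells without compound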
* = called active by the depositor; i = inactive; ? = inconclusive; / = not tested or not shown. Outcome played no part in choosing rows (roughly 1.3% active in at least one column).

compound,Insulin prom inh,Insulin prom inh cell count,PKD1 inh,RGS16-Gao,GALR2 agonist,HSV augment,HSV augment primary fold
CCC(C(=O)OCn1nnc2ccccc2c1=O)c1ccccc1 (configuration not stated),-35,134,-2,105,/,i,1.1
O=C(CN1N=C(c2ccccc2)CCC1=O)NCCN1CCc2ccccc2C1,-42,111,0,131,0.7,i,1
Cc1ccc2c(c1)N(CCC(=O)NCc1ccco1)C(=O)CO2,16,114,-5,104,-1.2,i,0.75
O=C(CCc1nc(-c2ccccc2F)no1)NCCN1CCOCC1,-119,66,-1,101,-1.4,i,0.81
Oc1ccc(Nc2nc3ccccc3nc2Nc2ccc(O)cc2)cc1,-257,9,4,170,0.1,i,1
CC(=O)c1c(C)cc(C)c(CSc2nnc(-c3ccco3)o2)c1C,32,132,-7,96,1.3,i,0.89
Cc1ccc(C2CC(=O)C(C=NCCN3CCN(C(=S)Nc4ccc(F)cc4)CC3)=C(O)C2)cc1 (configuration not stated),-94,102,-5,103,/,i,0.79
O=C(CSc1ncccn1)N1CCN(Cc2ccccc2)CC1,45,88,-3,109,-0.5,i,0.96
O=C(CN1CCN(Cc2ccccc2)CC1)NC(=O)NCc1ccco1,50,82,24,97,-1.1,i,0.99
CN1CCN(C=NC2=NN(c3cccc(C(F)(F)F)c3)CC2)CC1,/,/,-3,116,-1.5,i,1
FC(F)(F)c1ccc(CSc2nccn2-c2ccccc2)cc1,3,109,-2,144,-3.2,i,0.87
COC(=O)c1ccccc1NC(=O)CSc1nnc(C(CO)NC(=O)c2ccccc2Cl)n1C (configuration not stated),-19,63,5,100,-2.1,i,1
S=C(NCCc1ccccc1)N1CCn2cccc2C1c1ccncc1 (configuration not stated),29,79,-3,102,/,i,0.95
Cc1nc2ccccn2c1C(=O)N/N=C/c1ccc(CNC(=O)C(=O)Nc2ccccc2)o1,-82,34,-2,163,-1.4,i,0.99
CCCCn1c(=N)n(CC(O)c2ccccc2)c2ccccc21 (configuration not stated),/,/,/,108,/,i,0.84
N=c1n(CC(=O)c2ccc([N+](=O)[O-])cc2)c2ccccc2n1Cc1ccccc1,/,/,-4,97,0.1,i,1.1
CCc1cc(=O)oc2cc3oc(C)c(C)c3cc12,/,/,-9,103,-0.2,i,0.88
O=C(Nc1ccc(Cl)c(Cl)c1)N(CCCN1CCOCC1)Cc1cccnc1,/,/,/,101,/,i,0.88
Clc1ccc(CON/C=N/c2ncnc3sccc23)c(Cl)c1,-30,111,-5,106,-2.1,i,0.95
COc1ccc(-c2nnn(CC(=O)N(CC3CCCO3)C(C(=O)NC(C)(C)C)c3ccco3)n2)cc1OC (configuration not stated),-23,41,1,106,/,i,0.98

Three structures from above, arranged by number of heavy atoms, rising:
compound,Insulin prom inh,Insulin prom inh cell count,PKD1 inh,RGS16-Gao,GALR2 agonist,HSV augment,HSV augment primary fold
CCc1cc(=O)oc2cc3oc(C)c(C)c3cc12,/,/,-9,103,-0.2,i,0.88
Cc1nc2ccccn2c1C(=O)N/N=C/c1ccc(CNC(=O)C(=O)Nc2ccccc2)o1,-82,34,-2,163,-1.4,i,0.99
Cc1ccc(C2CC(=O)C(C=NCCN3CCN(C(=S)Nc4ccc(F)cc4)CC3)=C(O)C2)cc1 (configuration not stated),-94,102,-5,103,/,i,0.79

Just HSV augment primary fold, PKD1 inh and Insulin prom inh (2 entries from above):
SMILES	HSV augment primary fold	PKD1 inh	Insulin prom inh
S=C(NCCc1ccccc1)N1CCn2cccc2C1c1ccncc1 (configuration not stated)	0.95	-3	29
Cc1nc2ccccn2c1C(=O)N/N=C/c1ccc(CNC(=O)C(=O)Nc2ccccc2)o1	0.99	-2	-82

Remaining list, next part:
compound,Insulin prom inh,Insulin prom inh cell count,PKD1 inh,RGS16-Gao,GALR2 agonist,HSV augment,HSV augment primary fold
Cc1cc(/C=C/C(=O)O)c(C)n1-c1ccc(Cl)cc1,/,/,-1,98,/,i,1
CCC(CO)N=CC1=C(O)C(C(=O)c2ccccc2)CCC1=O (configuration not stated),/,/,-1,101,-2.3,i,1
C(=N\n1cnnc1)/c1cccn1-c1ccccc1,29,91,-2,104,0.0,i,1.4
O=C(CN1CCOCC1)OCCCc1ccccc1,/,/,-7,118,0.4,i,1
O=c1ccnc(Nc2ccc(Cl)cc2)[nH]1,/,/,/,98,/,i,1.2
COC(=O)c1c(NC(=O)CN2CCN(Cc3ccc4c(c3)OCO4)CC2)sc(C)c1C,/,/,-9,106,-1.4,i,0.67
COc1ccc(OCc2nc3ccccc3n2C(C)C)cc1,/,/,8,89,/,i,1.1
Cc1cc(NC(=O)C(C)C)ncc1NC(=O)Cc1ccccc1,-65,100,2,101,-3.0,i,0.94
COCCNC(=O)CN(c1cc(Cl)ccc1OC)S(=O)(=O)c1ccc(C)c([N+](=O)[O-])c1,-6,91,-5,102,/,i,1
N#C/C(=N/Nc1ccccc1F)C(=N)N1CCOCC1,/,/,-1,107,-1.3,i,1
CS(=O)(=O)NCc1ccc(C(=O)NCc2ccccc2)cc1,24,153,1,99,-1.5,i,0.92
COc1ccc(CCNC(=O)Cn2nnc(-c3ccc(N(C)C)cc3)n2)cc1OC,60,103,-16,98,-0.6,i,1
COC(=O)CN1CCN(C(=O)c2ccc(F)cc2)c2ccccc2C1,-25,134,-5,104,-2.1,i,0.88
CCOC(=O)c1c(NC(=O)COc2ncnc3ccccc23)sc(C(C)=O)c1C,0,165,14,102,-1.3,i,0.93
COc1ccccc1CC(=O)N1CCCC1,40,79,-18,100,-3.3,i,0.88
Cn1ccnc1C(O)c1ccco1 (configuration not stated),-150,93,13,101,-0.2,i,0.97
CCOC(=O)CC(=O)CSc1ncc(C(=O)OCC)c(N)n1,62,156,-12,109,-1.6,i,1.1
Cc1ccc2nc(SC(C)C(=O)N3CCCCC3)[nH]c2c1 (configuration not stated),/,/,8,97,/,i,0.84
Brc1ccc2[nH]c3c(c2c1)CCC3,/,/,/,102,/,i,0.86
Cc1ccc(N2C(=O)[C@@H]3[C@H](C2=O)C2c4ccccc4C=CN2[C@@H]3C(=O)c2ccco2)cc1 (some centres not stated),0,61,5,95,-2.8,?,/
COc1ccccc1-c1nnc(NC(=O)c2ccc3ncsc3c2)o1,48,110,12,13,-0.3,i,1
O=S(=O)(Nc1ccccc1N1CCOCC1)c1ccc(Cl)s1,43,126,-7,121,-0.9,i,0.9
COc1ccccc1NC(=O)COc1cc(Br)c(CNCCCN2CCOCC2)cc1OC,/,/,-7,109,/,i,0.87
COc1ccc(N2CCN(C(=O)CCCn3c(=O)[nH]c4cc(Cl)ccc4c3=O)CC2)cc1,74*,91*,2,98,-3.9,i,0.93
c1ccc(CSC2=NCCCN2)cc1,-53,57,-5,97,-1.9,i,1.1
COc1cc(C(=O)NC(=S)NNC(=O)c2ccc3c(c2)OCO3)cc(OC)c1OC,/,/,/,88,/,i,1.1
C/C(O)=C(/N=O)C(=O)Nc1ccccc1,-83,70,-5,97,-1.3,i,1.1
CC(c1nnc(SCC(=O)Nc2cccnc2Cl)n1-c1ccccc1)N(C)C (configuration not stated),/,/,-3,108,/,i,1.1
O=C(Cn1nnc(-c2cccs2)n1)NCc1cccs1,-36,85,-1,102,/,i,0.98
O=C(Nc1ccccc1)C(O)C(O)C(=O)Nc1ccccc1 (configuration not stated),5,121,4,132,/,i,0.9
CCCOc1ccccc1NC(=O)c1c(-c2ccccc2)noc1C,/,/,-17,109,-0.8,i,0.93
O=C(Nc1cc(C(F)(F)F)ccc1Cl)C(Sc1ccccn1)c1ccccc1 (configuration not stated),/,/,/,99,/,i,0.99
Cc1c(C(=O)Nc2ccc(F)cc2)nnn1-c1cccc(C(F)(F)F)c1,56,113,5,103,/,i,1.1
Cc1ccccc1-c1cc(C(=O)Nc2sc(C)c(C)c2C(N)=O)c2ccccc2n1,8,68,2,101,-0.5,i,0.7
Cc1ccc(Oc2cc(-n3nc(C)cc3C)ncn2)cc1,-26,163,-11,104,-1.8,i,1
CCCCCc1ccc(-c2ccc(OC)cc2)nc1,-36,108,-6,99,/,i,0.82
COc1ccc(CCNC(=O)CSc2nc(C)cc(C)n2)cc1OC,/,/,3,136,/,i,0.91
Cc1nc2nc(SCc3nc4ccccc4[nH]3)[nH]c2cc1Br,/,/,/,105,/,i,0.97
COc1ccc(C(=O)N(C)Cc2ccccc2)cc1Br,/,/,-18,102,-1.9,i,0.97
NC(=O)[C@@H]1CCCN1Cc1nc(Cc2ccccc2Cl)no1,/,/,6,104,/,i,0.99
CCN1C(=O)/C(=C\N(C)C)S/C1=N\S(=O)(=O)c1ccc(C)cc1,11,121,-2,91,/,i,0.94
Cc1ccc(CNC(=O)c2ccc(COc3ccccc3)cc2)cc1,-41,153,-18,104,-1.1,i,0.97
COc1ccccc1NC(=O)CN1CCN(C2c3ccccc3-c3ccccc32)CC1,-79,106,-13,112,-1.1,i,0.75
COc1cccc(Cl)c1NC(=O)N1CCN(c2ccnc3cc(Cl)ccc23)CC1,/,/,/,105,/,i,1.1
COc1ccc(Cl)cc1NC(=O)Nc1ccc(Br)cn1,18,121,-2,103,-0.4,i,1.1
Cc1ccc(C2CN(c3ccccc3)CC2C(=O)c2ccc(F)cc2)cc1 (configuration not stated),11,80,6,97,0.2,i,0.9
FC(F)(F)c1cc(-c2ccco2)nc(NCc2ccc(Cl)cc2)n1,-10,128,-1,79,-0.6,i,1
COc1ccc(OC)c(NC(=S)NCCSc2ccc(C)cc2)c1,-10,134,1,100,-0.2,i,0.88
COc1ccc(-c2cc(C(F)F)n3ncc(C(=O)N4CCN(C(=O)c5ccco5)CC4)c3n2)cc1,/,/,3,105,-0.1,i,0.94
Cc1cc(N2CCN(Cc3cn(C)nc3-c3cccc(Cl)c3)CC2)cc(C)n1,/,/,-12,104,/,i,0.65
Cc1cccc(OC(C)C(=O)N2CCCc3ccccc32)c1 (configuration not stated),50,60,4,114,-1.1,i,1.2
CCOc1ccccc1NC(=S)NC1CCCCC1,8,55,4,102,0.4,i,0.98
Cc1ccc(NCCC(=O)c2cccc([N+](=O)[O-])c2)c(C)c1,-7,107,-12,94,-3.4,i,1.1
Nc1c(C(=O)NCc2ccco2)nnn1-c1ccccc1,/,/,6,107,-1.9,i,0.79
CCC(C)Sc1nc2c(c(=O)[nH]c(=O)n2C)n1Cc1ccc(Cl)cc1 (configuration not stated),-46,128,0,100,0.4,i,0.88
CN(C)c1nc(Cl)nc(NCCOc2ccccc2)n1,66*,73*,-1,104,-1.1,i,1
CC(=O)c1ccc(OCCCC(=O)NCC(c2ccco2)N(C)C)cc1 (configuration not stated),/,/,-11,97,-2.2,i,0.97
COC(=O)c1c(N2C(=O)[C@H]3[C@@H](C2=O)[C@]2(C(=O)Nc4ccccc42)N2CCC[C@@H]32)sc(C)c1C,-65,94,-4,99,/,i,0.89
Cc1ccc(NC(=S)NC2CCN(Cc3ccccc3)CC2)cc1C,/,/,4,91,/,i,0.87
COc1cc(-c2ccc(NC(C)=O)c(OC)c2)ccc1NC(C)=O,/,/,/,99,/,i,1

Remaining list, next part
compound,Insulin prom inh,Insulin prom inh cell count,PKD1 inh,RGS16-Gao,GALR2 agonist,HSV augment,HSV augment primary fold
O=C(CSc1ccc(-c2ccco2)nn1)NCc1ccc(Cl)cc1,/,/,-1,95,-0.2,i,1
COc1ccc(CN(CC(=O)NC2CCCC2)C(=O)CCC(=O)Nc2cc(C)on2)cc1,-2,106,-7,104,-1.6,i,1.1
CCOC(=O)c1c(C=O)c(C)n(Cc2ccccc2)c1C,-21,128,-3,95,0.0,i,0.79
O=C(CC(=O)NN=C1CCCCCC1)NCc1cccnc1,-72,77,-5,105,/,i,1.1
N#C/C(=C/c1ccc(N2CCCC2)c([N+](=O)[O-])c1)c1nc2ccccc2[nH]1,30,87,4,102,-2.0,i,0.66
COc1ccc(S(=O)(=O)Cc2ccc(C(=O)NCCCN3CCc4ccccc4C3)o2)cc1,/,/,1,103,-0.7,i,0.89
O=C(CSCc1ccc(Br)cc1)NCc1ccccn1,/,/,-5,98,/,i,0.97
Cc1nnc(NC(=O)C2CCCO2)s1 (configuration not stated),/,/,-6,96,0.3,i,0.87
Cc1cccc(NC(=O)CCC(=O)N/N=C/c2cc([N+](=O)[O-])ccc2O)c1,/,/,7,85,-0.9,i,0.99

Compound activity as filed in PubChem BioAssay.
